Screens (PubChem)
A1 inh: caspase 3/7 activation in MEF A1-2A-BIM cells, primary screen, A1 inhibitor project, cell-based, luminescence, HTS | Caspase-Glo 3/7 luminescence, 3 h; percent of clofoctol response, vehicle zero | caspase activation, % (no concentration beside the values) | 0.066% of 330,000 active | AID 2462, 2010;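 active = over half of replicate activation scores above 10%, or exactly half above 10 with the replicate mean above 10; inconclusive = replicate mean below 10 yet half the replicates above 10; inactive = over half of replicates below 10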;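 also: wells of about 30 µL received 50 nL stock; many hits fall short of the cut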
MLL AF4-AF9 inh: inhibitors of AF4 peptide binding to AF9, primary screen, biochemical, AlphaScreen, biotin-AF4 peptide, FLAG-AF9, single point. Protein AF-9 (Homo sapiens), P42568. inhibition, % at 10 µM. 0.47% of 350,000 active;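 active = every replicate reaching a set inhibition limit, whatever the replicate mean, cut at about 25% in these data; inconclusive = mean inhibition reaches that limit but some replicates miss it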;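 also: 0% = plate neutral control median and 100% = total signal loss; the record names both 10 and 1 µM as test concentration; the first replicate is given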
Target sequence (P42568 whole entry, looked up): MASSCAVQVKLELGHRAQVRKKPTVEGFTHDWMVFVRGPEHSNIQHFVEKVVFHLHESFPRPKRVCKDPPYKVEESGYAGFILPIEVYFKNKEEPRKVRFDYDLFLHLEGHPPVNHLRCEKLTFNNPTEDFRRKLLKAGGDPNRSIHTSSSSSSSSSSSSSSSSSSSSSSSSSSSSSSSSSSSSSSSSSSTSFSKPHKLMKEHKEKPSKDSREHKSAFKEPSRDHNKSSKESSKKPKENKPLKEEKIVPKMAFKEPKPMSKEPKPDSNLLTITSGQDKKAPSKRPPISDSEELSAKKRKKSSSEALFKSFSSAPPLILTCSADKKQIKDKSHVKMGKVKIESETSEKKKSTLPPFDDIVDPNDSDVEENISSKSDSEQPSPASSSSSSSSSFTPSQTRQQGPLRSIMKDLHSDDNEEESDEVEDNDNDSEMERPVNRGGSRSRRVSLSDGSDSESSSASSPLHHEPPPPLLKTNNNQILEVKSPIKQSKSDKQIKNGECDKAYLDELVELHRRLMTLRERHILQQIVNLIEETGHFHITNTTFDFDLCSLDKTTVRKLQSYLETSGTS
Beta cell apopt: inhibitors of cytokine-induced beta cell apoptosis, primary screen, luminescence; INS-1E cytokine-induced death, ATP luminescence, 48 h; percent of positive-control rescue, neutral wells zero; protection from apoptosis, % (concentration not given with the values); 0.8% of 300,000 active;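 active = all replicates at 75% or more, or half of them and the mean; inconclusive = half reach 75% but not the mean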;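 also: 0% = cytokine-treated negative control wells and 100% = positive control rescue; higher means more ATP so stronger rescue from cytokine killing; wells of about 40 µL received 100 nL stock; the first replicate is given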
Calb FLC: C. albicans growth inhibition with fluconazole, primary screen, CaCi-2 strain, Alamar Blue fluorescence; C. albicans CaCi-2 (fluconazole-resistant clinical isolate) + fluconazole, 48 h; growth inhibition, % (concentration not given with the values); 0.57% of 300,000 active;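 active = most replicates above 75%; inconclusive = exactly half above 75%; inactive = most below 75%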;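 also: all wells also contain fluconazole at 8 µg/ml as a sub-toxic cotreatment; 0% = median of DMSO wells and 100% = median of geldanamycin control wells; wells of about 8 µL received 7.5 nL stock; the first replicate is given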
Ecoli rRNA inh: reduced GFP signal of wild-type E. coli, primary screen, bacterial rRNA inhibitor project, GFP/RFP fluorescence, OD600, single point; E. coli WT GFP vs humanized-ribosome RFP mutants, 24 h; stronger effect = lower value; DMSO median 0, no signal -100; GFP signal change (wild-type ribosome), % (concentration not given with the values); 1.6% of 350,000 active; AID 720706, 2013;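 active = significant combined selectivity score with lowered wild-type GFP, culture density cut under 30%, mutant RFP and density less affected; inactive = any of these conditions unmet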; also: one replicate is shown; some compounds called inactive have numbers as strong as hits
T cruzi inh: inhibitors of intracellular T. cruzi growth, primary screen, luminescence, NIH3T3 host cells. T. cruzi beta-gal in NIH3T3, 90 h. inhibition, % (no concentration beside the values). 1.4% of 300,000 active. AID 1885, 2009;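 active = mean inhibition across valid replicates above about 55%, limit read from the data; inconclusive = mean below that limit but half or more replicates reach it; inactive = mean below it, under half of replicates reach it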;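 also: signal also drops with host cell toxicity which is not excluded here; 0% = plate median of DMSO wells and 100% = zero luminescence signal; higher percent means less beta-gal luminescence so fewer parasites; stock transfer was 50 nL into about 50 µL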
Vif TR-FRET: inhibitors of Vif binding to APOBEC3G peptide, primary screen, biochemical, TR-FRET, GST-Vif 1-94, biotin-A3G peptide, dose response retest (AID 1117319); TR-FRET GST-Vif / biotin-A3G peptide binding; higher % means a stronger effect; test concentration not given here; strong numbers were not always called active; Virion infectivity factor (Human immunodeficiency virus type 1 group M subtype B (isolate …; 0.57% of 260,000 active; inhibition, %, or IC50 in µM where a hit was titrated;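 active = above the screen mean plus three standard deviations and confirmed in dose response; inconclusive = results disagree or hit not tested in dose response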;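 also: Vif residues 1-94 fused to GST binding biotinylated APOBEC3G peptide 110-148; 0% = full assay without inhibitor and 100% = GST in place of GST-Vif; retest series ran down from 100 µM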
RanGTP-Imp inh: inhibitors of RanGTP-importin-beta interaction, primary screen, biochemical, FRET, CFP-Ran, YFP-importin-beta, homogeneous; 1.1% of 300,000 active; cell-free CFP-Ran/YFP-importin-beta FRET ratio; Ran GTPase (GTP-bound) - importin-beta complex; inhibition, % (no concentration beside the values);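 active = most replicates above 15%; inconclusive = exactly half above 15%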;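 also: 0% = DMSO wells and 100% = Ran loaded with GDP instead of GTP; wells of about 40 µL received 100 nL stock; the first replicate is given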
Ecoli rRNA inh OD600: further read-out of Ecoli rRNA inh, marked with its call; OD600 change, %; measured here: OD600 growth;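 optical density of the mix in the first replicate; 0 = DMSO median and -100 = no signal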
Ecoli rRNA inh RFP: recorded beside Ecoli rRNA inh, whose call it bears; RFP signal change, %; measured here: RFP humanized mutant strains;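 first replicate; 0 = DMSO median and -100 = no signal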
An asterisk follows results filed as active; ? = inconclusive; . = not tested or not shown; & = joins results of further samples.

Values run as follows: A1 inh	MLL AF4-AF9 inh	Beta cell apopt	Calb FLC	Ecoli rRNA inh	Ecoli rRNA inh OD600	Ecoli rRNA inh RFP	T cruzi inh	Vif TR-FRET	RanGTP-Imp inh
Cn1cc([N+](=O)[O-])c(C(=O)NCc2ccco2)n1
  0.5	1.0	-6	-5	15	18	-0.4	-21	4%	-1.4
COc1ccc(OC)c(-c2csc(NC(=O)Cc3cccs3)n2)c1
  -0.3	1.9	0	-21	-36	-41	-1.5	12	-5%	2.2
COC(=O)c1c(C(=O)OC)c2ccncn2c1Cl
  0.0	.	0	-4	.	.	.	-9	7%	-3.4
O=C(Oc1cccnc1)c1ccccc1[N+](=O)[O-]
  1.3	1.8	3	24	-2	5	0.3	-10	15%	-5.2
O=c1c([N+](=O)[O-])cccn1Cc1cccc(Br)c1
  -0.2	0.2	1	-1	6	7	-0.9	34	0%	2.7
COc1cccc(/C=N/n2c(=S)n(C)c3ccccc32)c1OC
  0.8	.	-3	-3	.	.	.	-1	4%	-1.4
CCOC(=O)Nc1ccc(N2CCOCC2)c(S(=O)(=O)N2CCOCC2)c1
  -0.8	1.6	2	1	0	0	0.7	-15	.	-2.2
O=C(CSc1nnc(-c2ccccc2F)n1C1CCCCC1)Nc1cc(C(=O)O)ccc1Cl
  -0.2	0.4	-3	.	-58	-77	-20	.	.	.
O=C1N(S(=O)(=O)c2ccccc2F)C(=O)C2(CCCC2)N1S(=O)(=O)c1ccccc1F
  3.1	.	4	-13	.	.	.	-14	14%&-9%	6.4
O=C(O)/C=C/C(=O)NCc1ccccc1
  -0.7	-1.3	-5	-7	12	2	3.7	-3	-4%	0.8
Cc1c(-c2ccccc2Cl)nc2ccccc2c1C(=O)O
  -0.2	-5.7	2	-1	3	3	-2.5	-8	-2%	-1.4
Cc1ccc(C)c(C(C)NC(=O)C2CCCC2)c1 (centres undefined)
  0.6	-3.1	3	-6	5	6	3.1	1	.	-0.2
COc1ccccc1OCCC(=O)Nc1ccc2c(c1)OCO2
  -0.3	-0.6	-1	.	4	-2	1.5	.	.	.
O=C(CN1CCCCCC1)Nc1ccc(F)c(F)c1F
  0.6	.	-5	-8	.	.	.	3	1%	?
CCn1cc(CNC(=O)c2cc(COc3ccc(F)cc3Cl)on2)cn1
  -0.2	-3.4	0	-9	-25	-22	-12	-55	19%	7.9

Values run as follows: A1 inh	MLL AF4-AF9 inh	Beta cell apopt	Calb FLC	Ecoli rRNA inh	Ecoli rRNA inh OD600	Ecoli rRNA inh RFP	T cruzi inh	Vif TR-FRET	RanGTP-Imp inh
Cc1nc(SCC(=O)NC(C)(C)C)c2c(-c3cccs3)csc2n1
  -0.1	2.5	-4	32	-13	-16	1.6	17	19%	5.3
O=C(NCCS(=O)(=O)N1CCN(c2cccc(Cl)c2)CC1)C1CC1
  -0.2	-17	-2	6	0	2	-1.0	-7	-6%	-4.2
CC(=O)CCS(=O)(=O)c1ccc(Oc2ccc(S(=O)(=O)CCC(C)=O)cc2)cc1
  -0.2	.	-30	2	.	.	.	47	3%	-2.4
CC(=O)c1ccc(N2CCN(C(=O)c3cc(-c4ccncc4)nc4ccc(Br)cc34)CC2)cc1
  -0.3	1.7	7	2	13	12	4.2	52	-6%	-1.5
Cc1[nH]c(=O)c(C#N)c(C)c1CCC(=O)NCc1ccc(Cl)cc1
  0.2	-20	2	0	15	13	2.6	-5	-2%	5.7
CC(C)C(=O)Nc1ccc(C(=O)NNC(=O)NC2CCCCC2)cc1
  1.0	-2.8	-2	-3	10	4	1.9	-11	0%	-2.1
Cc1ccccc1NC1(C#N)C(=O)Nc2ccccc21 (centres undefined)
  0.1	.	-2	5	.	.	.	-15	-4%	-2.8
O=C(CNC(=O)c1cccc(N2C(=O)c3ccccc3C2=O)c1)Nc1ccc(F)c(F)c1
  -0.4	-4.4	-18	.	-9	-23	-6.7	.	-5%	.
C[C@@]12CCC3[C@@](CC[C@@H]4[C@](C)(C(=O)O)CCC[C@@]34C)(C[C@H]1O)C2 (some centres undefined)
  0.5	0.4	-5	-11	-2	4	-0.6	-1	2%	2.8
CC1(c2ccc3ccccc3c2)NC(=O)N(CC(=O)N2CCC(C(N)=O)CC2)C1=O (centres undefined)
  -0.4	-0.8	-3	.	3	18	-1.2	-10	2%	5.6
Cc1noc(C)c1S(=O)(=O)N1CCCC(C(=O)c2cccc(OC(C)C)c2)C1 (centres undefined)
  0.1	-3.7	2	5	-17	-32	-6.9	16	-1%	-7.4
O=C(CSc1nc2ccccc2[nH]1)c1cccs1
  -3.2	.	2	6	.	.	.	-9	6%	-0.2
COc1cccc(OCc2cc(C(=O)NCc3cnc4ccccn34)no2)c1
  0.5	2.3	10	10	2	-29	1.9	-17	.	3.3
CN(c1ccccc1)c1nc(N)c([N+](=O)[O-])c(NCc2ccco2)n1
  1.5	.	2	9	.	.	.	0	-8%	-3.9
CS(=O)(=O)N1N=C(c2ccco2)CC1c1cccc([N+](=O)[O-])c1 (centres undefined)
  0.5	-7.0	-1	6	12	5	-4.1	-9	.	1.5

Values run as follows: A1 inh	MLL AF4-AF9 inh	Beta cell apopt	Calb FLC	Ecoli rRNA inh	Ecoli rRNA inh OD600	Ecoli rRNA inh RFP	T cruzi inh	Vif TR-FRET	RanGTP-Imp inh
Cc1ccc(N2CCN(C(=O)NC3CCCCC3)CC2)c(C)c1
  1.9	1.2	.	-5	-3	-4	-1.1	3	.	-3.7
O=C(Nc1ccc2c(c1)OCO2)Nc1ccccc1F
  -13	2.3	22	-2	3	6	-1.3	2	-2%	3.6
Cc1[nH]c2ccccc2c1C(c1ccncc1)N1CCN(c2ccc(F)cc2)CC1 (centres undefined)
  0.1	.	-20	18	.	.	.	7	-4%	0.0
COc1ccc(Br)cc1CNc1ccc2[nH]c(=O)[nH]c2c1
  0.6	19	.	2	-5	-13	4.2	7	.	11
COc1ccc(S(=O)(=O)N2CCN(CCOc3ccc(Br)cc3)CC2)cc1OC
  -1.3	4.0	0	.	1	-17	3.4	.	4%	.
Cc1cc(-c2ccc(C(C)C)c(S(=O)(=O)N3CCC(C)CC3)c2)on1
  0.3	-1.5	7	2	-12	-16	-1.9	34	.	1.1
CC1(C)Cc2c(sc(/N=C/N3CCCCCC3)c2C#N)C(C)(C)N1
  0.0	3.1	-1	5	8	13	-0.4	25	11%	-0.2
COc1ccc(CCNC(=O)CCc2ccc(S(=O)(=O)NCC(C)C)cc2)cc1OC
  1.3	-7.0	-1	-5	-10	-3	6.7	1	1%	1.0
CCC(C)NC(=O)/C=C1\Sc2ccccc2NC1=O (centres undefined)
  -0.9	.	-2	6	.	.	.	-10	.	14
CCn1c(SCC(=O)Nc2ccc(C(=O)OC)cc2)nnc1-c1cccs1
  0.4	.	.	-19	.	.	.	2	-13%	.
CC(C)CC(=O)N(Cc1ccc(F)cc1)C1CCS(=O)(=O)C1 (centres undefined)
  -0.3	-0.4	8	-8	11	7	3.3	11	21%	-4.0
CCOc1cc(C)c(C(C)C)cc1S(=O)(=O)NCc1ccccn1
  -1.2	.	2	12	.	.	.	8	2%	3.2
CCOC(=O)Nc1ccc(OC)cc1S(=O)(=O)N1CCCCC1
  -0.7	.	-2	1	.	.	.	7	-4%	7.0
CCOC(=O)Cn1cnc2c(cnn2-c2ccccc2)c1=O
  0.6	-8.7	.	4	7	5	2.3	-3	0%	1.7
Cc1ccc(N=Cc2c(O)c3ccccc3n(C)c2=O)cc1
  -3.0	-11	-9	-5	13	15	-0.4	-6	-13%	4.8

Values run as follows: A1 inh	MLL AF4-AF9 inh	Beta cell apopt	Calb FLC	Ecoli rRNA inh	Ecoli rRNA inh OD600	Ecoli rRNA inh RFP	T cruzi inh	Vif TR-FRET	RanGTP-Imp inh
COc1cccc(Nc2nc3cc(OC)ccc3cc2C#N)c1
  -0.5	-2.1	6	1	11	10	9.4	-1	-12%	-5.5
COc1ccccc1NC(=O)N(Cc1ccc2c(c1)OCO2)Cc1nc2ccccc2c(=O)[nH]1
  0.5	.	4	8	7	12	-3.4	1	-2%	4.8
CC(C)c1ccc(N2CC(C(=O)Nc3nccs3)CC2=O)cc1 (centres undefined)
  0.5	.	4	-8	.	.	.	-17	4%	-3.8
Fc1ccc(NC(=S)N2CCN(c3cccc(C(F)(F)F)c3)CC2)cc1
  0.0	-1.0	8	0	-7	-12	-4.9	-26	.	27*
O=C(/C=C/c1ccccc1[N+](=O)[O-])c1ccc(F)cc1
  -1.0	-1.5	-11	2	11	13	2.8	-9	1%	-3.4
CC(C)CN1CCN(CCCc2ccccc2)C(CCO)C1 (centres undefined)
  1.3	-5.0	.	-2	3	7	-3.4	5	-3%	0.8
O=C(Nc1cc2cccc([N+](=O)[O-])c2oc1=O)c1cccs1
  -0.6	-3.6	1	3	7	10	0.9	-16	2%	.
COc1cc2cc(CN(CCN3CCOCC3)C(=O)Nc3ccc(F)cc3)c(=O)[nH]c2cc1OC
  0.3	-4.7	-4	1	-1	4	13	5	-9%	-12
O=C(NCc1ccco1)c1cc([N+](=O)[O-])ccc1N1CCOCC1
  0.2	-6.7	5	0	-18	-15	-15	-8	-2%	0.1
O=C(Nc1ccncc1)c1ccc(N2CCCC2=O)cc1
  -1.4	-0.1	10	3	3	-1	-0.3	-13	4%	0.5
O=C(NCC1CCCO1)C(C(=O)c1ccccc1)n1cc(Cl)ccc1=O (centres undefined)
  0.7	.	-3	36	.	.	.	-10	19%	-0.1
O=C(NCCN1CCOCC1)c1cc(-c2ccc(Cl)s2)nc2ccccc12
  0.7	0.3	0	10	11	8	-4.2	15	.	3.2
COc1ccccc1OCC(=O)Nc1cc(S(=O)(=O)N2CCOCC2)ccc1N1CCCCC1
  -0.6	-0.2	13	.	.	.	.	.	-8%	.
Cc1cc(C)cc(NC(=S)NN)c1
  -0.7	2.5	15	-22	4	-1	-0.9	-26	.	?
COC(=O)c1ccc2[nH]c(C(C)(C)O)c(C)c2c1
  0.8	9.4	-14	-4	-8	-22	18	4	.	-2.6
O=C(NC1CC2CCCC(C1)N2S(=O)(=O)c1ccccc1)C1CCCCC1 (centres undefined)
  0.3	4.2	.	-15	-6	13	-2.1	3	3%	-2.4
C#CCOCCOCCOCCNc1nc(N2CCN(C(=O)C([C@@H](C)CC)n3cc(C(N)COC(=O)C(F)(F)F)nn3)CC2)nc(N2CCN(C(=O)[C@H](Cc3ccc(O)cc3)n3cc(C(N)[C@H](C)CC)nn3)CC2)n1 (some centres undefined)
  1.1	3.7	0	6	4	11	7.7	-8	.	-2.3

The list is partial. The share of hits here may be higher or lower than overall.
